Six1-Eya2 blk: qHTS Assay for Inhibitors of the Six1/Eya2 Interaction | Homeobox protein SIX1 (Homo sapiens) + Protein phosphatase EYA2 (Homo sapiens), … | AlphaScreen GST-Six1/His-Eya2 binding, biochemical; hits give low values; control for the full effect not named in the record | activity change, % (no concentration beside the values) | 360,000 compounds, 0.56% hits; in the data active = activity change below about -65%; inconclusive = about -30% to -65%; inactive = above about -30%; further: on the % scale 0 is the no-effect control and ±100 the full control effect
Target sequence (O00167 whole entry, looked up): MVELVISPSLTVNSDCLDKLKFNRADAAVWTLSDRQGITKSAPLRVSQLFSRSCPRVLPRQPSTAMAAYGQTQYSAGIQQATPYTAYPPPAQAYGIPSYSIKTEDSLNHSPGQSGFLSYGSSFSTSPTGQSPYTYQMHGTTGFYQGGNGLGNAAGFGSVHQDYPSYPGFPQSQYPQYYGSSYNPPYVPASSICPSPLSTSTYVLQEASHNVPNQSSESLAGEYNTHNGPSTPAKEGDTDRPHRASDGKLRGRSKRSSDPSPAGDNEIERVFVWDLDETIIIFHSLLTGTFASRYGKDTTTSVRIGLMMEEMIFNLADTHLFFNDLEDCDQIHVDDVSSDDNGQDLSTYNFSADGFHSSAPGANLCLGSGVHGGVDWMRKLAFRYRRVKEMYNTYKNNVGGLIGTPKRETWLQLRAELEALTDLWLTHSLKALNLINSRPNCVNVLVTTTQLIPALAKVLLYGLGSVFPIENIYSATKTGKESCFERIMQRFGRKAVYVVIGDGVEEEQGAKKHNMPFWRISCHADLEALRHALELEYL
Target sequence (Q15475 whole entry, looked up): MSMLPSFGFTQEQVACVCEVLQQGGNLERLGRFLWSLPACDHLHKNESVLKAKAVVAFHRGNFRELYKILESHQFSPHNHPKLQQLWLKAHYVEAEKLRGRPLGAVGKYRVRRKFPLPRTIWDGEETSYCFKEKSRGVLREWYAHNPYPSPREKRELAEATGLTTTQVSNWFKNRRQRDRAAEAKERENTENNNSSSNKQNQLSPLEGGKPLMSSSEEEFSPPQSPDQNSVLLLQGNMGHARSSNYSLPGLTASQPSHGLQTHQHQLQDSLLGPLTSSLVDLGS
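AlphaScreen with GST-Six1 and His-Eya2 (5X mix: 250 nM and 500 nM), glutathione donor and nickel acceptor beads; buffer 50 mM Tris pH 8.0, 300 mM NaCl, 1 mM TCEP; 1 h at 37 C in the dark.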
D2 ag: Beta-Arrestin HTS for Positive Allosteric Modulators of the Human D2 Dopamine Receptor: Agonists | activation, % (no concentration beside the values) | DiscoveRx PathHunter D2 beta-arrestin, luminescence, 90 min; 100% = 57 uM dopamine signal | AID 624465, 2012 | 360,000 compounds, 0.084% hits; in the data active = activation above about 40%; inconclusive = about 15% to 40%; inactive = below about 15%; further: compound concentration not given in the record; the text of the record calls up to 30% inactive
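DiscoveRx PathHunter D2 beta-arrestin cells (2,100/well) attached overnight, then compound-stimulated 90 min at 37 C in HBSS/10 mM HEPES/0.1% Tween-20 buffer; beta-galactosidase complementation read by luminescence after 1 h at ambient temperature. Dopamine 57 uM final (EC100) as control.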
TRPML1 agonist: qHTS for Agonists of the Human Mucolipin Transient Receptor Potential 1 (TRPML1). Mucolipin-1 (Homo sapiens), Q9GZU1. TRPML1-expressing cells, Ca2+ dye fluorescence, FDSS; host cell line not named in the record; reference of the full effect not given here. activation, % (no concentration beside the values). 410,000 compounds, 0.12% hits. AID 624414, 2012; in the data active = activation above about 50%; inconclusive = about 30% to 50%; inactive = below about 30%; further: 0% is about no effect; the text of the record puts the active cut at 80%
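In this qHTS format, compounds were pin-transferred onto Ca8-dye-loaded TRPML1-DL cells induced with Tet overnight, and intracellular Ca2+ fluorescence was recorded kinetically for 110 s after a 10 s baseline. A subsequent 4uM final 54-4 (EC80) addition followed by a second 110 s read served as the antagonist phase.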
PINK1 expr mod: A Quantitative High throughput Screen to Identify Chemical Modulators of PINK1 Expression. Potency, µM (series often up to 76.6 µM), inactives show at the top dose activation (PINK1 increase), actives largely listed as activators. PINK1 immunofluorescence, high-content cytometry, 24 h. AID 624263, 2012. 410,000 compounds, 0.2% hits; active = well fitted activation curve with a large enough effect; inconclusive = small, poorly fitted or top-dose-only effect; inactive = flat fitted curve, though single readings scatter; cell line not stated here;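 further: potency means the concentration at half of the fitted maximal effect; % of control where 0% means no effect; nearly all actives have a fitted effect of over 65% in size; a mitochondrial uncoupler was the plate control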
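A stable cell line was treated with compounds at 5 concentrations for 24 hours, with CCCP as control. PINK1 levels and mitochondrial localization were measured by immunofluorescence with mitochondrial, cell and nuclear markers after fixation, read by laser-scanning cytometry.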
TRPML1 inh: qHTS for Inhibitors of the Human Mucolipin Transient Receptor Potential 1 (TRPML1). Mucolipin-1 (Homo sapiens), Q9GZU1. TRPML1-inducible cells, Ca2+ dye fluorescence, FDSS; hits give low values; inhibition of EC80 agonist-evoked calcium signal. activity change, negative = inhibition, % (no concentration beside the values). 390,000 compounds, 0.02% hits; in the data active means activity change below about -50%; inconclusive means about -30% to -50%; inactive means above about -30%;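 further: stimulus is agonist 54-4 at its EC80 concentration; on the % scale 0 is the no-effect control and ±100 the full control effect; compound concentration not given in the record; the text of the record puts the active cut at -80%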
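Tet-induced TRPML1-DL cells loaded with Ca8 no-wash calcium dye were read kinetically on FDSS. Compound addition was followed by EC80 agonist 54-4 (4 uM final); inhibition was read over 110 s.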
D2 PAM: Beta-Arrestin HTS for Positive Allosteric Modulators of the Human D2 Dopamine Receptor: Potentiators | 360,000 compounds, 0.23% hits | DiscoveRx D2 beta-arrestin cells, luminescence, 90 min; 100% = 57 uM dopamine signal | D(2) dopamine receptor (Homo sapiens), P14416 | potentiation, % (concentration not given with the values); active = potentiation of 50% or more; inconclusive = 30% to 50%; inactive = 30% or less;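 further: tested on top of an EC20 dose of dopamine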
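PathHunter beta-arrestin assay in DiscoveRx D2 cells. Compounds were added with an EC20 of dopamine (50 nM final) for 90 min at 37 deg C. Luminescence was read 1 h after detection reagent, with 57 uM dopamine as the EC100 control.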
Active calls of the source: *; ? = inconclusive; / = not tested or not shown; & = joins results of further samples; [ ] = another dose, or the depositor's remark.

Values in the order: D2 PAM, PINK1 expr mod, D2 ag, Six1-Eya2 blk, TRPML1 agonist, TRPML1 inh
> O=C(NCC1CCCO1)c1[nH]c(C(F)(F)F)nc1-c1ccccc1 (configuration not stated)
    -3.7, 0.4%, -0.6, -3.1, 0.1, -9.7
> COc1ccc(OC)c(NC(=O)c2cc3c(=O)oc4ccccc4c3s2)c1
    /, -0.4%, /, /, 0.0, 25.1
> COc1cc(C2NC(=O)NC(c3ccccc3)=C2C(C)=O)cc(Cl)c1OCC(=O)O (configuration not stated)
    -3.9, 1.6%, -0.1, -0.6, -0.1, -4.2
> CC(=O)N1CCC(N(CCN2CCOCC2)C(=S)Nc2cc(C)ccc2C)CC1
    -11.4, -1.8%, -4.0, 6.7, 0.0, 42.2
> Cc1c(C)c2c(OCC(=O)N3CCC[C@H]3C(=O)O)cc3c(c2oc1=O)CCC(C)(C)O3
    0.1, 0.3%, 0.9, -85.2*, -0.1, 1.6
> O=C1/C(=C\c2ccc(O)cc2)SC(=S)N1Cc1ccccc1
    -11.5, 22.5%, -5.5, -26.2, 15.4, 14.6
> CC(=O)OC[C@@H]1CN(Cc2ccccc2)C[C@H](n2cnc3c(NC4CCC4)ncnc32)O1
    -29.2, -0.6%, -3.8, -1.5, -0.5, /
> COc1ccc(CC(=O)N(C)CC(=O)Nc2cccc(F)c2)cc1S(=O)(=O)N1CCOCC1
    -4.2, -0.7%, -0.1, 10.7, 0.2, 3.7
> CN1CCc2nc(NC(=O)c3cccc(S(=O)(=O)N4CCc5ccccc54)c3)sc2C1
    -10.1, -0.8%, -1.5, -3.4, -0.2, 0.1
> COC(=O)NNC(=O)/C=C/c1ccccc1
    4.2, 1.6%, -3.2, 19.8, 1.3, -16.8
> Cc1cccc(C(=O)Nc2ccc3c(c2)C(=O)N(CC(C)C)C3=O)c1
    10.7, -0.2%, 9.3, 3.8, 3.3, -17.6
> Cc1ccccc1N(CC(=O)NCCSC1CCCCC1)S(=O)(=O)c1ccccc1
    3.7, -0.1%, -1.0, -4.6, 0.6, 6.9
> CC(=O)NN1C(=O)/C(=C\c2ccc(O)cc2)SC1=S
    -16.3, 0.0%, -8.1, -3.4, 5.2, 34.0
> CCCCN1C(=O)C(CC(=O)NCCN2CCOCC2)CC(C(=O)N2CCOCC2)=C1C (configuration not stated)
    -2.3, -0.4%, -1.9, -3.2, 0.2, 7.2
> Cc1ccc(-n2nnnc2SCc2nc3sc(C)c(C)c3c(=O)[nH]2)cc1
    -8.5, ?, -1.7, 0.3, 1.2, 8.1
> O=C(Nc1cc(=O)[nH]c(=O)[nH]1)c1cccc(Br)c1
    -1.7, 0.3%, -1.0, -3.6, 0.4, -14.9
> Cc1cc(C)c(NC(=O)CSc2nc3ccc(NC(=O)CSc4nnnn4Cc4ccccc4)cc3s2)c(C)c1
    -14.8, 5.9%[38.3 µM], -1.5, -1.0, 0.8, 0.3
> CC1(C(=O)NS(=O)(=O)c2ccc(F)cc2F)CCN1C(=O)Cc1cccc2ccccc12 (configuration not stated)
    7.8, -0.2%, 9.2, 2.1, -0.2, /
> CC(NC(=O)c1cc2ccccc2o1)c1ccccc1 (configuration not stated)
    -7.6, -0.2%&-1.3%, -18.6, 6.0, 1.3&2.3, 14.5&-8.2
> CCOc1ccccc1N(C)C(=O)c1cc2c(=O)n(CC)c3ccccc3c2s1
    -10.3, 6.7%, 3.3, -24.3, 3.7, 36.9

Values in the order: D2 PAM, PINK1 expr mod, D2 ag, Six1-Eya2 blk, TRPML1 agonist, TRPML1 inh
> CCCCN(C)CCNC(=O)c1cc2c(-c3ccccc3F)nn(C)c2s1
    -12.7, 2.1%, 3.5, -16.8, -1.4, -9.7
> COc1ccc(NC(=O)C2CCCN(S(=O)(=O)c3cccc4cccnc34)C2)cc1OC (configuration not stated)
    11.9, 0.0%, 6.9, 3.5, 1.2, -4.0
> Cc1ccc(S(=O)(=O)NCCc2nnc3ccc(SCc4ccc(F)cc4)nn23)cc1
    /, -0.7%, /, /, 1.5, 3.7
> COc1ccc(C(=O)Nc2ccccc2C(=O)NC(C)C)cc1OC
    -3.8, -2.6%, -1.3, 4.8, 3.5, -9.3
> O=C(/C=C/c1ccc(Cl)c([N+](=O)[O-])c1)Nc1ccc(N2CCCC2)cc1
    -0.3, 3.3%, 9.2, -17.6, -0.9, 18.8
> COc1ccc(CNC(=O)c2ccccc2[N+](=O)[O-])cc1
    -8.5, 2.5%[38.3 µM], -0.1, 2.0, 0.5, -11.4
> CCOC(=O)c1c(C)n(C)c2ccc(OC)c(NC(=O)CCN3CCSCC3)c12
    -16.5, 1.6%[38.3 µM], -4.6, 2.5, 0.4, -12.6
> O=C(Cn1nc2c(cc1=O)CCCC2)Nc1ccc(F)cc1F
    /, 0.2%, /, /, -0.4, -11.8
> CCC(C)Sc1ccc([C@@H]2[C@H]3C(=O)N(CC)C(=O)[C@H]3[C@]3(C(=O)OC)CCCCN23)cc1 (some centres not stated)
    -16.5, 15.4%, -2.5, -3.3, 1.2, 14.5
> Cn1cc(S(=O)(=O)NCCc2ccccc2)c(=O)n(C)c1=O
    -2.4, 0.5%, -2.0, 9.7, 1.0, -5.6
> COc1ccc(OC)c(S(=O)(=O)NCC(c2cccs2)N2CCc3ccccc3C2)c1 (configuration not stated)
    11.2, 2.1%, -5.2, -14.4, -0.3, -2.0
> O=C(Nc1ccn(Cc2c(F)c(F)cc(F)c2F)n1)c1ccc(COc2ccccc2Cl)cc1
    -3.9, ?, 1.3, -1.7, 3.6, -16.9
> CC(C)c1cc(C(=O)NC2CCCc3c2cnn3-c2ccccc2F)no1 (configuration not stated)
    -25.3, 1.5%, -0.7, 0.9, 0.3, 3.7
> Cc1ccc(C(=O)N2CCN(Cc3ccc4c(c3)OCO4)CC2)c(Cl)c1
    -8.8, 2.2%, 2.1, 4.4, 1.0, 27.3
> C=CCOC(=O)C1=C(C)OC(N)=C(C#N)C1c1c(C)nn(-c2ccccc2)c1Cl (configuration not stated)
    -13.6, 1.5%, -0.3, 9.6, 0.8, 21.2
> CCCC/C(O)=C/c1nc2ccccc2[nH]c1=O
    -0.2, 0.5%, -3.4, 6.1, -0.7, 5.3
> CCOc1ccc(NC(=O)CN(C)CC(=O)NC(C)c2ccccc2)cc1OCC (configuration not stated)
    -4.1, 2.0%, -5.5, 9.0, -1.4, 2.0
> O=C(O)c1ccc(S(=O)(=O)N(Cc2cccs2)CC2CCCO2)cc1 (configuration not stated)
    -12.5, -0.3%, -3.2, -22.5, -0.4, -17.0
> Cc1ccc2c(CNCCc3ccc(Cl)cc3)c(C(=O)O)n(Cc3ccc(F)cc3)c2c1
    /, ?, /, /, 0.6, 4.8
> Cc1ccccc1NC(=O)CCC(=O)OCCCC(F)(F)C(F)(F)F
    -8.8, -2.6%, -0.3, 2.8, 0.2, -5.5

Next section (two carried over from the part before).
Values in the order: D2 PAM, PINK1 expr mod, D2 ag, Six1-Eya2 blk, TRPML1 agonist, TRPML1 inh
> Cc1ccc2c(CNCCc3ccc(Cl)cc3)c(C(=O)O)n(Cc3ccc(F)cc3)c2c1
    /, ?, /, /, 0.6, 4.8
> Cc1ccccc1NC(=O)CCC(=O)OCCCC(F)(F)C(F)(F)F
    -8.8, -2.6%, -0.3, 2.8, 0.2, -5.5
> O=C(CSc1ncnc2c1oc1ccccc12)Nc1ccc2c(c1)OCCO2
    11.0, 15.5%[38.3 µM], -0.4, -10.3, 0.7, 13.0
> COc1cc(/C=C/C(=O)OCC(=O)N2CCc3ccccc3C2)ccc1O
    -7.6, 4.7%, 1.3, -2.6, -0.2, 15.4
> Cc1ccc(SCC(=O)OCC(=O)NCCCc2ccccc2)cc1
    -0.2, -0.3%, -4.9, 12.5, -0.3, -7.9
> COc1cccc(Nc2nc(C(N)CO)cs2)n1 (configuration not stated)
    -14.6, 2.3%, -1.7, ?, -0.2, /
> Cc1ccc(-c2csc3ncnc(-n4nnc5ccccc54)c23)cc1
    -4.7, 2.0%, 2.0, -6.4, 3.1, 49.7
> NC(=O)CSc1nnc(CNc2ccc(F)cc2)n1CC1CCCO1 (configuration not stated)
    16.2, 0.9%, 0.0, -5.3, 0.9, 10.7
> CCOC(=O)C1(Cc2ccc(OC)cc2)CCN(C(=O)CC2CCC(=O)N2)CC1 (configuration not stated)
    -10.0, -2.6%, 1.6, 7.2, 1.0, 4.8
> Cc1nc2ncnn2c(C)c1C/C=C/c1ccccc1
    0.1, 4.0%, -0.8, -0.4, 0.2, -3.4
> COc1ccc(C(=O)/C=C2\Sc3ccccc3N2C)cc1
    -12.5, 1.8%, -8.0, 10.5, 0.5, -26.0
> Cc1ccc(S(=O)(=O)NCc2ccc(C(=O)NCCN(Cc3ccccc3)C(C)C)cc2)cc1
    -18.4, -0.1%, -2.4, -2.0, -0.1, -14.6
> COC(=O)C1=C(C(=O)OC)[C@@H]2N(Cc3ccccc3)c3ccccc3[C@@]23C[C@@H](C(=O)OC)N(C(=O)NC(C)(C)C)C3=N1
    -10.2, 0.4%, -2.4, -11.5, 0.2, 4.6
> CCOC(=O)c1nnn(-c2nonc2N)c1-c1ccc(F)cc1
    ?, 0.4%, -0.1, -2.0, 2.1, -18.8
> Cc1cc(Nc2cc(Cl)cc(Cl)c2)nc(N)n1
    -19.3, 6.1%, -1.7, -1.0, -1.0, 10.0
> O=C(CCN1C(=O)c2ccccc2S1(=O)=O)NCc1ccccc1
    -2.5, 1.1%, -1.7, 4.9, -0.5, 0.4
> COc1ccc2c(C)cc(N3CCOCC3)nc2c1
    -21.3, -0.1%, -1.0, 0.8, 0.3, -0.1
> CC1(C)CC(=O)C=C(NCCN2CCNCC2)C1
    -7.3, -3.8%, 4.4, 7.1, -1.0, 6.5
> CCCCN(C(=O)NC(=O)Nc1ccc(C)cn1)S(C)(=O)=O
    -1.3, 0.1%, -0.2, 0.7, 0.1, -1.5
> CC(C)C(C(=O)Nc1nccs1)N1C(=O)c2ccccc2C1=O (configuration not stated)
    4.0, -1.5%, -2.8, 0.1, 1.6, 1.2
> COc1ccc(/C=C/C(=O)c2ccccc2)cc1COc1ccc(F)cc1
    -18.6, 17.0%[38.3 µM], -4.5, 2.3, 1.2, 36.6
> CCN(C(=O)c1oc2ccc(S(=O)(=O)N3CCCCCC3)cc2c1C)c1ccccc1
    /, 1.4%, /, /, 0.3, 20.7
> O=C(Nc1ccccc1NC(=O)c1ccc(F)cc1)c1ccc(F)cc1
    -0.3, -0.5%, -5.1, -1.0, -0.7, -2.0
> CCn1ncc(Br)c1C(=O)Nc1ccc(F)cc1F
    3.1, -0.9%[38.3 µM], 1.1, 4.6, 5.5, 9.9
> Cc1cc(C)n2nc(C(=O)N/N=C/c3c4ccccc4cc4ccccc34)nc2n1
    -11.9, 11.7%, -5.0, -16.9, 0.8, -7.6

High-throughput results as filed in PubChem BioAssay.
